Screening data as filed in PubChem.
Bead autofluor: flagged as autofluorescent in microsphere protease counterscreen; fluorescence intensity (concentration not given with the values); compound autofluorescence counterscreen, microsphere flow cytometry; hits give high values; hit rate 3.1% among 360,000; AID 624483;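 active means at least 3 SD above the mean of all compounds, about 16000 in these data; inconclusive means too few beads counted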;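 further: 100 nL of 1 mM stock went into each well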
PrP UTR inh: inhibition of PrP 5' UTR reporter expression | cell-based PrP 5' UTR mRNA reporter, plate reader | inhibition, % (concentration not given with the values) | hit rate 0.35% among 340,000 | AID 488862;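 active means every replicate at 50% or more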;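 further: 0 = median of the neutral control wells; tested in H4 reporter cells; numbers are from one replicate; inactives centre near -14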
Active calls of the source: *; u = inconclusive. Some of the compounds tested; rates above refer to the full screens.

SMILES	Bead autofluor	PrP UTR inh
CC(=O)OC1(C)CC(C)C(=O)C(C(O)CC2CC(=O)NC(=O)C2)C1 (centres undefined)	5709	63*
COc1ccc2c(c1)c(=Cc1ccc(N(C)C)cc1)c1cc(-c3ccccc3)[n+](C)n12	3537	36
CC(=O)C[C@H](O)CC(=O)[C@@H]1OC(=O)CCCCC/C=C/Cc2ccccc21	3542	-16
COc1ccc([C@H]2CC(=O)C=C(c3cccc(Cl)c3)C2)cc1OC	4237	-7
CC(=O)CC(=O)NC1CCc2ccccc21 (centres undefined)	3157	-9
O=c1oc(CCCO)cc2ccc(/C=C/c3cccc([N+](=O)[O-])c3)cc12	3938	-39
NC(=S)N/N=C\c1c(OCc2ccccc2Cl)ccc2ccccc12	3450	-17
O=C1C2CCCCC2C(=O)N1Cc1ccccc1 (centres undefined)	2576	-16
COc1ccc(/C=C/c2c(-c3ccc(OC)cc3)oc(=O)c3cc(OC)c(OC)cc23)cc1	4049	-16
CCOC(=O)[C@H]1[C@H]2COc3ccccc3[C@@H]2N2C(=O)CN(Cc3ccc(C)cc3)C(=O)[C@@]12C	2989	2
CC(=O)c1ccc(-c2[nH]c3ccccc3c2CCN2C(=O)c3ccccc3C2=O)cc1	3839	-28
Cc1ccc(NC(=S)Nc2cc(-c3ccccc3)[nH]n2)cc1Cl	4711	-4
O=C1C[C@@H]2c3c(cccc3CN1Cc1ccc(Cl)cc1)C[C@@H](O)[C@H]2O	4178	0
COC(=O)C1=C(c2ccc(OC)c(OC)c2)C[C@@H]2CC[C@H]1N2C(=O)NCC1CC1	4135	-20
O=C(NCc1ccccc1)C1(CC2CC(c3ccccc3)=NO2)CCNCC1 (centres undefined)	3866	-7
O=C(O[C@@H]1[C@H](Cc2ccccc2)NS(=O)(=O)[C@H]2C[C@@H]3C=C[C@]12O3)c1ccccc1Br	4097	-4
COC(=O)C1C(OC)=CC(=O)C2CCCCC21 (centres undefined)	4086	-20
COc1ccc(CC(=O)NCC(=O)N/N=C/c2ccco2)cc1	1985	4
Cc1ccc2c(C)c3ccc4ccccc4c3c[n+]2c1	4379	-19
Cc1ccc(C2CC(=O)Oc3cc(C)cc(C)c32)cc1 (centres undefined)	3352	-36
COc1ccc(-c2cc(=O)c3c(O)c(OC)c(OC)c(OC)c3o2)cc1	3758	-59
CC12CCC3C(=CCc4cc(O)ccc43)C1CC(=NO)C2O (centres undefined)	4240	-14
CCOC(=O)C1CCN(C(=O)c2ccc(C)o2)CC1	3817	-26
C[C@H](CO)N1C[C@H](C)[C@@H](CN(C)S(=O)(=O)c2ccccc2)Oc2ccc(NC(=O)C3CCCCC3)cc2C1=O	3645	-35
CCCNC(=O)N1[C@H]2CC[C@@H]1C(C(=O)OC)=C(c1c(C)noc1C)C2	3933	-8
CCN1C(=O)[C@@H]2[C@@H](c3ccc(-c4ccccc4)cc3)N3CCC[C@@]3(C(=O)OC)[C@@H]2C1=O	4180	-16
CC(=O)Oc1cccc2c1C(=O)C1CC=CC(OC(C)=O)C1C2=O (centres undefined)	4016	-32
C=CCC[C@@H](Cc1ccc(F)cc1)C(=O)OC[C@@H](Cc1c[nH]c2ccccc12)NC(=O)[C@H](CC=C)CC(=O)N[C@H](CO)Cc1ccccc1	3032	-16
CC(C)c1cccc(-c2ccc3c(c2)S(=O)(=O)c2cccc(C(=O)NCc4ccccc4Cl)c2C3=O)c1	3929	-17
COc1ccc(S(=O)(=O)N2CCc3ccccc32)cc1C(=O)Nc1ccc(NC(C)=O)cc1	3522	-18
CC1CC(=NNC(=O)C2COc3ccccc3O2)CC(C)(C)C1 (centres undefined)	4030	-18
C=CC(=O)NCNC(=O)C=C	5706	-7
C[C@@H]1COC(=O)[C@@H](Cc2ccc(F)cc2)CC/C=C\C[C@@H](CC(=O)NCCO)C(=O)N1	3970	-24
CCCCC[C@@H]1C=C(C(=O)O)[C@H](c2ccc3c(c2)OCO3)N1S(=O)(=O)c1ccc(C)cc1	3797	-34
CCc1ccccc1NC(=S)Nn1cnnc1	u	4
CC(C)C[C@@H](CNCC(=O)[C@H](C)NC(=O)c1[nH]cnc1C(=O)N[C@@H](C)CN)NC(=O)c1nc[nH]c1C(=O)N[C@@H](CC(=O)O)C(=O)O	3998	-22
CCC[C@@H]1CCCC/C=C\CCCC(=O)OCCN1C(=O)OC(C)(C)C	3695	-5
C[C@@H](CSc1ccc(Br)cc1)CN1CC[C@H](O)CCC1=O	4072	-19
CCCc1cc(=O)[nH]c(SCC(=O)Nc2sc3c(c2C(N)=O)CCCC3)n1	4576	-49
COc1ccc(S(=O)(=O)N(C)C[C@H]2Oc3c(NC(=O)Nc4c(C)noc4C)cccc3C(=O)N([C@H](C)CO)C[C@@H]2C)cc1	3855	-8
O=C1C=C(c2cc(F)ccc2F)C[C@@H](c2ccc(Cl)cc2)C1	3938	12
Cn1nc(C(=O)Nc2cccc(S(=O)(=O)N3CCCC3)c2)c2ccccc2c1=O	4351	-26
N#Cc1c2c(c(Nc3ccc(F)cc3)n3c1nc1ccccc13)CCCC2	5217	-19
COC(=O)[C@H](CO)N1C(=O)[C@@H]2[C@H](C1=O)C1C=C[C@H]2C1	2907	-3
CCOC(=O)CCC(NC(=O)c1ccc(Nc2nc3ccccc3nc2C(=O)OCC)cc1)C(=O)OCC (centres undefined)	3397	5
CC(C)(C)c1ccc(/C=N/NC(=O)C2CCCC2)cc1	5211	-95
C=C[C@@H]1c2ccccc2N(S(=O)(=O)c2ccc(C)cc2)[C@H](c2ccc(C(F)(F)F)cc2)C1(C#N)C#N	4146	-11
CNC(=O)C1CC(=O)N(c2ccc(OCC(=O)Nc3ccc(F)cc3)cc2)C1 (centres undefined)	3484	-23
CCOc1ccc(NC(=O)N(O)C2(C#N)CCCCC2)cc1	3421	-11
O=C(CNC(=O)OCc1ccccc1)NC(Cc1cnc[nH]1)C(=O)O (centres undefined)	3762	-17
More compounds:
SMILES	Bead autofluor	PrP UTR inh
O=C(C[C@H]1C/C=C\CC[C@H](Cc2ccc(F)cc2)C(=O)O[C@@H](c2ccccc2)CNC1=O)N[C@@H](CO)Cc1ccccc1	3949	6
O=C(O)CN1CCNCCN(CC(=O)O)CCNCC1	3754	-15
Cc1csc(/N=C/c2ccc([N+](=O)[O-])cc2)n1	2190	-19
CCCC(C)C1c2c(c(C)c(C)oc2=O)Oc2c(C)c(C)oc(=O)c21 (centres undefined)	3965	-12
O=C(CCCN1C(=O)c2ccccc2C1=O)Nc1c2c(nc3c1CCC3)CCC2	u	-31
C=C(C1=CCN(S(=O)(=O)C(C)(C)C)[C@@H]1CCO)c1ccccc1	3986	-15
CCOP1(=O)C=C(Sc2ccc([N+](=O)[O-])cc2[N+](=O)[O-])C(C)(C)O1 (centres undefined)	3767	-22
CCCCN(C(=O)c1cc(-c2ccncc2)nc2ccccc12)c1c(N)n(CC(C)C)c(=O)[nH]c1=O	2782	4
CN1CCC[C@@H]1CCNC(=O)c1c(-c2ccc3c(c2)OCO3)noc1-c1ccsc1	3240	-1
Cc1cnc(-n2c(=S)[nH]c3ccccc3c2=O)s1	2977	-15
Cc1noc(C)c1NC(=O)N(C)C[C@H]1Oc2c(NC(=O)Nc3ccc4c(c3)OCO4)cccc2C(=O)N([C@H](C)CO)C[C@@H]1C	3075	-5
CCOc1ccc([C@@H]2CC=C(C(=O)O)[C@H](c3cccc(Cl)c3)N2S(=O)(=O)c2ccc(C)cc2)cc1	4008	-19
NCCCCCNC(=O)c1[nH]cnc1C(=O)N[C@@H](Cc1ccccc1)C(=O)OCc1ccccc1	4022	-15
O=C(NCCc1ccccc1)c1ccc(NC(=O)C2CCCC2)cc1	3838	-19
O=C(C=Cc1ccccc1)NCCNC(=O)C=Cc1ccccc1	3531	-36
COc1ccc(CN([C@H](C)CO)S(=O)(=O)N(Cc2ccccc2)[C@H](CO)C(C)C)cc1	3747	-14
COc1ccccc1-c1oc2ccccc2c1C#CC1(O)CCCCC1	4356	-25
C[C@H]1CN([C@@H](C)CO)C(=O)c2cc(NC(=O)Nc3cccc4ccccc34)ccc2O[C@@H]1CN(C)Cc1ccc(-c2ccccc2)cc1	4379	-10
NC(=S)NN=C1CCCCCCCC1	3812	-10
O=C1CC[C@@H]2CC3(C[C@@H]4CCN1[C@H]24)Nc1cc(Cl)ccc1NC3=NC1CCCCC1 (some centres undefined)	3561	-82
CCOC(=O)c1oc2cc(O)cc(C)c2c1C	3655	-45
O=C1C2(Cl)C3(Cl)C4(Cl)C(Cl)(Cl)C5(Cl)C3(Cl)C1(Cl)C5(Cl)C24Cl (centres undefined)	5743	8
CC(C)CCN1CCC(CN2CCNC(=O)C2=O)CC1	3571	-6
CC(C)(O)/C=C/C(=O)C(C)(O)C1C(O)CC2(C)C3CC=C4C(C=C(O)C(=O)C4(C)C)C3(C)C(=O)CC12C (centres undefined)	3756	70*
COc1cc(/C=C/c2ccc(/C=C/c3cc(OC)c(OC)c(OC)c3)cc2)cc(OC)c1OC	4184	-31
C#CCOCCOCCOCCNc1nc(N2CCOCC2)nc(N2CCN(C(=O)[C@H](CCCCN)n3cc(CCC(=O)O)nn3)CC2)n1	3660	-23
O=C(N[C@@H]1C/C=C\C[C@@H](CC(=O)N(CCO)Cc2ccccc2)C(=O)NCCOC1=O)OCC1c2ccccc2-c2ccccc21	2816	7
CCCCN1CC(=O)N2[C@H]3c4ccccc4OC[C@@H]3[C@H](c3ccccc3)[C@]2(C)C1=O	3689	-25
CCOC(=O)[C@H]1[C@H]2COc3ccc(C)cc3[C@@H]2N2C(=O)CN(Cc3ccc(Cl)cc3)C(=O)[C@@]12C	3190	-3
NC(=O)c1ncn([C@@H]2O[C@H](CNCc3cnc(N4CCOCC4)nc3)[C@@H](O)[C@H]2O)n1	3680	-21
C[C@H](CO)N1C[C@H](C)[C@@H](CN(C)C(=O)NC2CCCCC2)Oc2c(NC(=O)Cc3ccccc3)cccc2C1=O	3968	-1
C/C(=N/NC(=O)c1ccc(-c2ccccc2)cc1)c1cccc(O)c1	5453	-10
C=C1C(=O)OC2CC1C(O)CC(C)=CCCC(C)=CC(O)CC2C (centres undefined)	3442	-50
COc1ccc(S(=O)(=O)N(C)C[C@H]2Oc3c(NC(=O)NC4CCCCC4)cccc3C(=O)N([C@H](C)CO)C[C@@H]2C)cc1	3966	-7
COC(=O)[C@H](Cc1c[nH]c2ccccc12)NCc1cccc(B(O)O)c1	3752	-21
C#CCN1C=CC(=O)[C@@H](OC(=O)Nc2ccc(OC)cc2)[C@H]1c1ccccc1Br	3484	-23
O=C(Cc1cccc(NC(=O)C2CCCN(C(=O)CCc3ccccc3)C2)c1)Nc1cccc(C(=O)N2CCCCC2)c1 (centres undefined)	3676	-9
N[C@@H](Cc1ccc(O)c(O)c1)C(=O)O	5594	-5
CC[C@@H]1C(c2cccc(C)c2)=NN(c2ccccc2)[C@H]1C(=O)N1CCOC1=O	3927	-26
Oc1cccc(C=NN=C2c3ccccc3-c3ccccc32)c1	2927	31

The list goes on; the last two above are carried over.
SMILES	Bead autofluor	PrP UTR inh
CC[C@@H]1C(c2cccc(C)c2)=NN(c2ccccc2)[C@H]1C(=O)N1CCOC1=O	3927	-26
Oc1cccc(C=NN=C2c3ccccc3-c3ccccc32)c1	2927	31
O=C(CSc1nnc(SCc2cccc3ccccc23)s1)c1ccc2c(c1)OCO2	19293*	-13
COc1ccc(NC(=O)Nc2ccc3c(c2)C(=O)N([C@H](C)CO)C[C@H](C)[C@@H](CN(C)S(C)(=O)=O)O3)cc1	4128	-4
O=C(c1ccccc1)N1N=C(c2ccc(F)cc2)CC1c1ccc(F)cc1 (centres undefined)	3795	-21
CC(C)CCN1CCC(CN2C(=S)NC[C@@H]2Cc2ccccc2)CC1	3953	-8
CCOc1cc(/C=N/NC(=O)c2ccccc2OCc2ccc(F)cc2)ccc1O	3151	-15
CCCCCCCCNS(=O)(=O)CCNCc1ccco1	4060	-19
COC(=O)C1=C(C)N(Cc2ccccc2)C(=NCCCCO)N[C@H]1c1cccc(C(F)(F)F)c1	3919	-18
COC(=O)C1=C(c2cccc(C#N)c2)C[C@@H]2CC[C@H]1N2C(=O)NCCNC(C)=O	4050	-25
NC(=O)c1ncn([C@@H]2O[C@H](CNCc3c(OCc4ccccc4F)ccc4ccccc34)[C@@H](O)[C@H]2O)n1	4088	-19
COC1OC2COC(c3ccccc3)OC2C(O)C1NC(C)=O (centres undefined)	4354	-4

Filtered by structure: the entries above with an aryl methoxy group (14)
SMILES	Bead autofluor	PrP UTR inh
COc1ccc2c(c1)c(=Cc1ccc(N(C)C)cc1)c1cc(-c3ccccc3)[n+](C)n12	3537	36
COc1ccc([C@H]2CC(=O)C=C(c3cccc(Cl)c3)C2)cc1OC	4237	-7
COc1ccc(/C=C/c2c(-c3ccc(OC)cc3)oc(=O)c3cc(OC)c(OC)cc23)cc1	4049	-16
COC(=O)C1=C(c2ccc(OC)c(OC)c2)C[C@@H]2CC[C@H]1N2C(=O)NCC1CC1	4135	-20
COc1ccc(CC(=O)NCC(=O)N/N=C/c2ccco2)cc1	1985	4
COc1ccc(-c2cc(=O)c3c(O)c(OC)c(OC)c(OC)c3o2)cc1	3758	-59
COc1ccc(S(=O)(=O)N2CCc3ccccc32)cc1C(=O)Nc1ccc(NC(C)=O)cc1	3522	-18
COc1ccc(S(=O)(=O)N(C)C[C@H]2Oc3c(NC(=O)Nc4c(C)noc4C)cccc3C(=O)N([C@H](C)CO)C[C@@H]2C)cc1	3855	-8
COc1ccc(CN([C@H](C)CO)S(=O)(=O)N(Cc2ccccc2)[C@H](CO)C(C)C)cc1	3747	-14
COc1ccccc1-c1oc2ccccc2c1C#CC1(O)CCCCC1	4356	-25
COc1cc(/C=C/c2ccc(/C=C/c3cc(OC)c(OC)c(OC)c3)cc2)cc(OC)c1OC	4184	-31
COc1ccc(S(=O)(=O)N(C)C[C@H]2Oc3c(NC(=O)NC4CCCCC4)cccc3C(=O)N([C@H](C)CO)C[C@@H]2C)cc1	3966	-7
C#CCN1C=CC(=O)[C@@H](OC(=O)Nc2ccc(OC)cc2)[C@H]1c1ccccc1Br	3484	-23
COc1ccc(NC(=O)Nc2ccc3c(c2)C(=O)N([C@H](C)CO)C[C@H](C)[C@@H](CN(C)S(C)(=O)=O)O3)cc1	4128	-4
